MLL AF4-AF9 inh: blocks AF4 peptide binding to human AF9; inhibition, % at 10 µM; P42568; 0.47% of 350,000 active; AlphaScreen, biotin-AF4 peptide binding to FLAG-AF9; AID 651704;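 active means every replicate reaching a set inhibition limit, whatever the replicate mean, cut at about 25% in these data; inconclusive means mean inhibition reaches that limit but some replicates miss it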;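 further: 0% = plate neutral control median and 100% = total signal loss; the record names both 10 and 1 µM as test concentration; the first replicate is given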
Ecoli growth: E. coli growth inhibition; Escherichia coli growth, OD600, 23 h; hits give low values; OD600 absorbance (no concentration beside the values); 0.21% of 330,000 active; AID 1053175;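 active means OD600 absorbance below the run mean of sample wells minus 3.6 SD, in any replicate, cut at about 0.56 in these data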;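 further: stock transfer was 300 nL into about 60 µL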
FGF22 binding: FGF22 (human) thermal shift binding | Q9HCT0 | recombinant FGF22 thermal shift, SYPRO orange fluorescence; percent of sucrose octasulfate shift, DMSO zero | calls only at 9.99 µM | 1.5% of 340,000 active;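 active means melting point raised past a set limit in the mean and every replicate; inconclusive means no clear call; three in four hits are not shown here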
Target sequence (Q9HCT0 whole entry, looked up): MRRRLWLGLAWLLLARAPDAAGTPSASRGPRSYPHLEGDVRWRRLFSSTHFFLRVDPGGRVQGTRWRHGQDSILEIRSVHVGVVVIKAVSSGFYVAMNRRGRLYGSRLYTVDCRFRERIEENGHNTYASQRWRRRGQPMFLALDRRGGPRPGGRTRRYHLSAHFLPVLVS
HNF4A DNA FP: change in binding of human HNF4 alpha to DNA. HNF4a-FITC DNA binding, fluorescence polarization, 1 h. activity change, % at 10 µM. 0.3% of 360,000 active. AID 1224865; in the data active means activity change above about 30%, passing the limit was not always enough;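 further: controls were the assay level and a saturating level of protein; the project sought stronger binding though the title names inhibitors; some compounds called inactive have numbers as strong as hits; positive values seem to mean higher polarization but the record does not say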
Target sequence (P41235 whole entry, looked up): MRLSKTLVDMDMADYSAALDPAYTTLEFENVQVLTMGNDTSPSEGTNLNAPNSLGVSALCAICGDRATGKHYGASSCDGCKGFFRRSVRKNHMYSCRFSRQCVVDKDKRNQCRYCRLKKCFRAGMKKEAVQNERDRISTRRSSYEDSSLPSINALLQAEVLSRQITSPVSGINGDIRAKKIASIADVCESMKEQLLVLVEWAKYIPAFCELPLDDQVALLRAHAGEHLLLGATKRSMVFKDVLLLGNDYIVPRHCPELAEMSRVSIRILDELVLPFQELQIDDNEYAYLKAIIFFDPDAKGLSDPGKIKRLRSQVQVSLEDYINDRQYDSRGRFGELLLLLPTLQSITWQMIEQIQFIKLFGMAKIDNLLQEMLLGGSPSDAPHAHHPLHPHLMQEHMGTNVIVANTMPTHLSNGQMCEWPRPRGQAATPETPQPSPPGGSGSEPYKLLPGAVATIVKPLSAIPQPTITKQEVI
Vif TR-FRET: HIV-1 Vif–A3G interaction blockers – biochemical, TR-FRET, GST-Vif 1-94, biotin-A3G peptide, dose response retest, primary screen (AID 1117319). one-dose inhibition, %; IC50 in µM for titrated hits. 0.57% of 260,000 active. TR-FRET GST-Vif / biotin-A3G peptide binding; higher % means a stronger effect; test concentration not given here; strong numbers were not always called active;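 active means above the screen mean plus three standard deviations and confirmed in dose response; inconclusive means results disagree or hit not tested in dose response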;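 further: Vif residues 1-94 fused to GST binding biotinylated APOBEC3G peptide 110-148; 0% = full assay without inhibitor and 100% = GST in place of GST-Vif; retest series ran down from 100 µM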
UCH37 inh: human UCH37 deubiquitinating enzyme inhibition | Q9Y5K5 | purified proteasome/UCH37, Ub-AMC cleavage fluorescence | inhibition, % (concentration not given with the values) | 0.33% of 330,000 active;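 active means mean of two replicates above 20%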;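 further: 0% = compound-free wells with enzyme and 100% = wells lacking proteasome; stock transfer was 100 nL into about 20 µL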
Target sequence (Q9Y5K5 whole entry, looked up): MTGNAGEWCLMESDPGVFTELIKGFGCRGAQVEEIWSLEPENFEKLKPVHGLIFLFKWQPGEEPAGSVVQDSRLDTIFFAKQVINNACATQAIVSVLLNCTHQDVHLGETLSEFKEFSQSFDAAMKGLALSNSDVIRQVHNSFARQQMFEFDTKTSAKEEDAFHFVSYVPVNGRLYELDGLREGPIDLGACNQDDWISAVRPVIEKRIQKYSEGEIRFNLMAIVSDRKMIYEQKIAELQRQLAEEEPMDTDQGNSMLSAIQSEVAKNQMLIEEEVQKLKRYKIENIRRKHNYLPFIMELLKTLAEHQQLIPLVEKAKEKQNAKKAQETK
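Material: human UCH37 enzyme supplied as purified proteasome complex. Measure: % inhibition of Ub-AMC cleavage fluorescence. Medium: pH 7.4 Tris-HCl (50 mM) with ovalbumin, ATP-MgCl2, DTT. Times: 30 min preincubation with enzyme, 25 min cleavage at room temperature. Detection: AMC fluorescence intensity at 355/460 nm.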
RanGTP-Impb inh: inhibitors of RanGTP-importin-beta interaction, primary screen, biochemical, FRET, CFP-Ran, YFP-importin-beta, homogeneous. inhibition, % (test concentration not listed). 1.1% of 300,000 active. cell-free CFP-Ran/YFP-importin-beta FRET ratio;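 active means most replicates above 15%; inconclusive means exactly half above 15%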;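 further: 0% = DMSO wells and 100% = Ran loaded with GDP instead of GTP; wells of about 40 µL received 100 nL stock; the first replicate is given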
Active calls of the source: *; i = inactive; ? = inconclusive; . = no result given; & = joins results of further samples. Only part of the results is shown, so the mix of outcomes need not match the whole.

mol,MLL AF4-AF9 inh,Ecoli growth,FGF22 binding,HNF4A DNA FP,Vif TR-FRET,UCH37 inh,RanGTP-Impb inh
Cc1cc(=O)[nH]c(SCC(=O)Nc2cc(S(=O)(=O)N3CCCC3)ccc2Cl)n1,-6.9,0.708,.,-0.6,-13.5%,5.7,?
COCCC(=O)N1CCCC(CNS(=O)(=O)c2ccc(OC)cc2)C1 (stereo unspecified),-1.2,0.651,i,2.2,4.1%,1.8,-0.5
O=C(NCCc1ccc2c(c1)OCO2)Oc1ccccc1,-0.6,.,i,4.0,.,.,.
Cc1cc(C)cc(NC(=O)CSc2nc3[nH]ncc3c(=O)[nH]2)c1,-6.8,0.649,i,-1.3,?,-1.0,2.6
C/C=C/c1ccc(OCC(=O)Nc2ccncc2)c(OC)c1,-1.3,0.648,i,-0.8,-9.1%,3.7,0.1
CC1CCC(NC(=O)c2ccc3nc[nH]c3c2)CC1 (stereo unspecified),.,0.673,.,-4.2,7.2%,4.5,-4.9
Cn1nc(C(=O)NCCc2ccc3c(c2)OCCO3)c2ccccc2c1=O,-1.4,0.678,i,3.1,-5.3%,3.6,.
C/C(=N/Nc1ccc([N+](=O)[O-])cc1)c1ccc(C)cc1C,9.2,.,i,15.0,1.5%,.,?
O=C(CC1SCCNC1=O)NCc1ccccc1 (stereo unspecified),0.7,.,i,3.1,-2.4%,.,.
Cc1ccc(OC(=O)c2ccc(N3CCOCC3)c([N+](=O)[O-])c2)cc1,.,0.661,.,0.5,0.3%,4.1,3.7
O=C(O)c1cccc(NC(=O)c2cccc(NC(=O)C3CCCO3)c2)c1 (stereo unspecified),.,0.685,.,2.0,0.7%,-0.5,2.7
CC(NC(=O)C(C)N1c2cccc3cccc(c23)S1(=O)=O)c1ccccc1 (stereo unspecified),0.2,0.658,i,-1.0,.,-36.9,0.8
COc1cc2[nH]c(=O)n(CCCC(=O)NC3CCCCC3)c(=O)c2cc1OC,.,0.701,.,-1.6,.,-16.0,5.8
Cc1cccc(C)c1NC(=O)COc1ccc2c(C)c(Cc3ccccc3)c(=O)oc2c1,-1.4,0.729,i,-2.5,.,-174.7,1.4
Cc1cccc(-n2nc3c(c2NC(=O)c2ccco2)CS(=O)C3)c1C (stereo unspecified),-2.0,0.709,.,0.6,-8.2%,5.5,-4.6
O=C(NC1CCCCC1)c1cc(F)cc2c1OCOC2,-3.6,0.722,i,-0.2,5.4%,2.8,7.6
O=C(O)c1cccn1Cc1ccccc1F,.,0.661,.,2.4,-0.9%,1.9,2.0
C[C@@H]1CCCCO[C@H](CN(C)C(=O)Nc2ccc3c(c2)OCO3)[C@@H](C)CN([C@H](C)CO)C(=O)c2cc(NS(=O)(=O)c3ccc(F)cc3)ccc2O1,0.5,.,i,-3.0,3.5%,.,.
CCOc1ccccc1NS(=O)(=O)c1ccc2c(c1)N(C)CCO2,-3.7,0.642,i,-1.2,2.4%,2.6,2.9
CCOc1cc(C)c(Cl)cc1S(=O)(=O)NCC1CCCO1 (stereo unspecified),.,0.763,.,2.2,0.8%,3.1,2.0
COc1ccc(C=C2C(=O)OC(C)(C)OC2=O)cc1OC,1.6,.,i,1.3,6.8%,.,1.4
CC1(C(=O)NS(=O)(=O)c2cccc(C#N)c2)CCN1C(=O)Cc1cc(F)ccc1F (stereo unspecified),-4.0,.,i,-0.8,.,.,.
O=C1CSC(=S)N1N=Cc1cccc2ccccc12,-3.3,.,i,1.5,0.0%,.,.
CN(C(=O)CC1C(=O)NCCN1CC(c1ccccc1)c1ccccc1)C(C1CC1)C1CC1 (stereo unspecified),2.5,0.668,i,4.0,8.3%,1.4,10.3
CC(=O)Nc1ccc(S(=O)(=O)N(CC(=O)O)Cc2ccccc2)cc1,.,0.703,.,1.7,?,-4.1,-2.2
O=C1Oc2ccccc2C(=O)/C1=C/c1ccccc1O,-0.2,.,i,1.6,15.0%,2.6,-2.5
C=CCN(CC=C)S(=O)(=O)c1ccc(C(=O)Nc2nnc(COC)o2)cc1,3.1,0.688,i,2.2,92.9%,2.6,0.8
CC(CNC(=O)c1ccc2c(c1)OCO2)c1ccc([N+](=O)[O-])cc1 (stereo unspecified),-2.7,0.672,i,0.7,.,5.0,3.4
CC1(C)CC(C(CCN(Cc2ccccc2)C(=O)c2ccco2)c2ccc(F)cc2)CCO1 (stereo unspecified),.,0.713,.,-6.6,-0.2%,3.1,2.5
COc1ccc(C(C(=O)NCc2ccccc2)n2c(=O)c(-c3ccco3)nc3ccccc32)cc1 (stereo unspecified),-0.5,.,i,13.7,.,.,.
CCCOc1cccc(C2C(C(=O)c3ccc(C)o3)=C(O)C(=O)N2CCN2CCOCC2)c1 (stereo unspecified),1.1,0.631,i,-5.8,-4.1%,12.5,2.1
COC(=O)c1ccccc1NC(=O)CCNC(=O)Cn1cnc2ccccc2c1=O,.,0.698,.,1.4,-2.7%,-1.3,2.7
CCCCc1nnc(NC(=O)C(C)Sc2nc(C)cc(=O)[nH]2)s1 (stereo unspecified),.,0.675,.,1.3,-5.6%,0.8,8.7
CCOC(=O)N1CCN(Cc2ccccc2Cl)CC1,.,0.684,.,-1.3,-1.4%,1.8,.
Cc1ccc(C(=O)Nc2ccc(F)c(S(=O)(=O)N3CCOCC3)c2)s1,1.5,0.601,i,-3.2,.,0.5,.
C[C@H]1CN([C@@H](C)CO)C(=O)Cc2cc(NC(=O)CCC(F)(F)F)ccc2O[C@H]1CN(C)S(=O)(=O)c1ccc(Cl)cc1,1.7,.,i,1.5,.,2.8,.
CC1Cc2ccccc2N1C(=O)c1cnc2ccccn2c1=O (stereo unspecified),.,0.739,.,-0.2,0.7%,9.9,2.0
CCOc1ccccc1C(=O)NN1C(=O)CCC1=O,.,0.667,.,0.2,.,2.1,-1.7
C/C(CC(=O)Nc1ccc2c(c1)OCCO2)=N\NC(=O)Cc1ccccc1,1.4,.,i,-0.2,.,.,-4.5
Cc1nc(N)nc(Cl)c1CCC1OCCO1,0.4,0.647,i,2.9,-4.3%,0.8,.
COc1ccc(C2(CNC(=O)c3cccc([N+](=O)[O-])c3)CCOCC2)cc1,.,0.671,.,-1.1,-2.5%,0.6,-0.6
O=C(N/N=C/C(Br)=C/c1ccccc1)c1n[nH]c2c1CCC2,.,.,.,-16.4,10.7%,.,-1.8
CC(C)(C)NC(=O)C(c1ccc(O)cc1)N(C(=O)CCC(=O)Nc1ccccn1)c1ccc(F)cc1 (stereo unspecified),-7.8,0.682,i,-2.2,16.4%,3.1,-2.9
CC(CCc1ccco1)NC(=O)c1cccc2c1C(=O)N(C1CCCCC1)C2 (stereo unspecified),2.9,.,i,-2.3,-7.4%,.,0.8
CCCCC(O)C1=C[N+](=O)CC=C1 (stereo unspecified),-5.3,.,i,1.4,.,.,.
O=C(NCCC1=CCCCC1)C1CCC(CNc2c(N3CCCCC3)c(=O)c2=O)CC1 (stereo unspecified),1.1,0.678,i,-0.5,4.0%,6.0,1.1
COC(=O)[C@]1(C)N[C@H](CN(C)C(=O)NC(C)C)[C@@H]2C(=O)N(C)C(=O)[C@@H]21,-0.5,0.683,i,-1.8,5.7%,5.0,.
O=C(Nc1ccc(S(=O)(=O)N2CCOCC2)cc1)c1ccc(Cl)cc1,1.7,0.706,i,-2.4,.,3.6,-1.6
CCCn1nnnc1NCc1cccc(OC)c1,-0.9,0.669,i,3.1,.,5.0,2.4
COc1ccc(CN2CCNC(=O)C2CC(=O)NCCc2nc(C)c(C)s2)c(OC)c1 (stereo unspecified),2.0,0.646,i,0.1,?,-2.8,-4.1
Cc1nn(C)cc1C(=O)Nc1ccc2c(c1)OCCO2,0.3,0.639,i,1.6,.,3.6,?
CC(CNC(=O)COc1ccccc1)OC(=O)Nc1cccc(Cl)c1 (stereo unspecified),.,0.687,.,-2.3,-5.0%,2.1,?
Cc1cccc(NC(=S)NCc2ccco2)c1C,2.7,0.707,i,0.8,.,1.6,-2.8
Cc1ccccc1-c1nc(CN2CCC(C(=O)NC3CCCCC3)CC2)c(C)o1,1.8,0.665,i,4.6,-1.4%,1.7,3.9
CCn1c(SCC(=O)Nc2nc3ccc(OC)cc3s2)nnc1-c1ccoc1C,.,0.673,.,0.5,21.8%,2.1,.
NNC(=O)c1cc2c(s1)-c1cc(Cl)ccc1SC2,-1.0,0.637,i,6.0,-12.8%,-23.3,1.4
O=C(CN1C(=O)NC2(CCCCC2)C1=O)Nc1ccc(F)cc1,-0.7,0.581,i,-4.1,-5.9%,1.2,-0.8
COc1ccc(NC(=O)N(C)C[C@@H]2OCc3cnnn3CCCC(=O)N([C@H](C)CO)C[C@H]2C)cc1,-4.9&1.5,.,i,-0.8,-5.2%,.,.
CCCN(C(=O)CSc1ncccn1)C1CCS(=O)(=O)C1 (stereo unspecified),-18.7,0.712,i,2.3,.,0.9,.
CC1CC(C)CN(C(=O)C(C)N2CCN(S(=O)(=O)c3cccs3)CC2)C1 (stereo unspecified),1.6,0.709,i,1.7,-4.9%,2.0,.

The listing continues.
mol,MLL AF4-AF9 inh,Ecoli growth,FGF22 binding,HNF4A DNA FP,Vif TR-FRET,UCH37 inh,RanGTP-Impb inh
CS(=O)(=O)Nc1ccc2c(c1)OCC(=O)N2Cc1ccccc1,0.8,0.655,i,-2.3,-2.2%,4.3,0.4
COC(=O)c1cc2c(ccn2-c2ccc(F)cc2)n1CC(=O)C(C)(C)C,0.5,0.685,i,-2.2,6.5%,3.3,-0.8
C=Cc1ccc(Cn2c(=O)n(CCCOC)c(=O)c3sccc32)cc1,1.4,0.705,i,-1.7,27.2%,1.8,-1.6
CCCCNC(=S)NNC(=O)c1csc2ccccc12,1.8,0.718,i,-2.3,-0.3%,3.0,5.9
CCOc1cc(/C=C2\C(=O)N(c3nc(-c4ccc(Br)cc4)cs3)N=C2c2ccccc2)ccc1O,.,0.77,.,-11.9,5.7%,7.5,-4.6
COc1cc(/C=C(\NC(=O)c2cc(OC)c(OC)c(OC)c2)C(=O)NC(C(=O)O)c2ccccc2)cc(OC)c1OC (stereo unspecified),2.0,0.738,i,0.0,.,5.5,4.4
Cc1cc(C)cc(OCc2nnc(SCC(=O)NC3CC3)n2C)c1,-0.9,.,i,1.1,.,.,1.8
COC(=O)c1ccc(NC(=O)CS(=O)(=O)c2ccccc2)cc1,-0.9,0.669,i,1.1,5.7%,3.6,-2.6
Cc1cccc2sc(NC(=O)C3c4ccccc4Oc4ccccc43)nc12,2.8,0.762,i,-2.0,2.8%,-0.3,2.2
O=C(NCc1ccco1)c1ccc2c(=O)n(-c3ccccc3)c(=S)[nH]c2c1,.,0.726,.,-3.2,-6.3%,1.7,-0.5
CN1CCN(c2ccccc2NC(=O)c2ccc(-c3ccccc3)cc2)CC1,.,0.718,.,0.1,-1.6%,6.5,6.1
O=C(c1cc(Br)ccc1Cl)N1CCN(c2ncccn2)CC1,0.7,0.705,i,-6.0,3.2%,0.1,3.0
O=C(NCc1c(Cl)cccc1Oc1ccccc1)c1ccccc1,6.3,0.683,i,3.4,-13.7%,-1.3,-0.8

Complete entries, looked up by structure:
Entry for CCCCNC(=S)NNC(=O)c1csc2ccccc12 : MLL AF4-AF9 inh: 1.8; Ecoli growth: 0.718; FGF22 binding: i; HNF4A DNA FP: -2.3; Vif TR-FRET: -0.3%; UCH37 inh: 3.0; RanGTP-Impb inh: 5.9
Entry for CS(=O)(=O)Nc1ccc2c(c1)OCC(=O)N2Cc1ccccc1 : MLL AF4-AF9 inh: 0.8; Ecoli growth: 0.655; FGF22 binding: i; HNF4A DNA FP: -2.3; Vif TR-FRET: -2.2%; UCH37 inh: 4.3; RanGTP-Impb inh: 0.4

Screening data as filed in PubChem.
